Bioassay records: PubChem BioAssay, several laboratories
Env fusion inh: inhibitors of HIV Env-mediated cell fusion; HeLa-JRFL Env/CEM21 cell fusion, luciferase; inhibition, % at 12.3 µM; hit rate 1.1% among 360,000;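 active = mean replicate inhibition score of at least 50 and every replicate individually at or above 50; inconclusive = only one of the two criteria met; inactive = mean below 50 and not all replicates reaching 50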;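 note: 0% = plate neutral controls and 100% = maraviroc near 300 nM; one replicate is shown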
Yeast UUG start: modulators of start codon recognition fidelity in yeast. activity score, % at 18.7 µM. hit rate 0.13% among 350,000. S. cerevisiae UUG-firefly luciferase reporter, luminescence/redox ratio. AID 602363;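 active = replicate mean at a twofold rise or more, about +100% in these data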;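 note: firefly luciferase made from a UUG start codon reports start codon fidelity; reporter light over untreated wells divided by growth signal over untreated wells; some hits fall short of that in this replicate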
Rce1 inhib: yeast Ras-converting enzyme inhibition | calls only | AID 2563 | hit rate 0.27% among 290,000 | yeast membranes, quenched prenylated peptide cleavage fluorescence;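 active = fall in fluorescence gain of 50% or more versus controls, with final raw signal at or below 3038400; inconclusive = same 50% fall but final raw signal above 3038400; inactive = fall in fluorescence gain under 50%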;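 note: plate controls were neutral control wells for no effect and wells lacking membranes for full effect; tested at 10 µM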
Target sequence (Q03530 whole entry, looked up): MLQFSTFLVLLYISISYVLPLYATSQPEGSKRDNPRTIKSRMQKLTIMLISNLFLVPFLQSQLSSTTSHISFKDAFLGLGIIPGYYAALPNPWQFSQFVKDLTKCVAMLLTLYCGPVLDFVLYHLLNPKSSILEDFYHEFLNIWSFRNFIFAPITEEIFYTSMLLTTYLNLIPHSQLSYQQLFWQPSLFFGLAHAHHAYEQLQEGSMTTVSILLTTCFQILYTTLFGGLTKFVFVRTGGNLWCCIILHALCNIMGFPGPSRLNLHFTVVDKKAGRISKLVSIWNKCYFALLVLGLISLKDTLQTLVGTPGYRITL
PABP polyA inh: PABP-poly(A) binding inhibition. PABP-poly(A) RNA binding, fluorescence polarization. inhibition, % at 35 µM. hit rate 1% among 290,000;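 active = 50% or more with normal probe brightness, or confirmed in later tests; inconclusive = above 50% with abnormal brightness, or retests that disagree; inactive = below 50% or failed in later tests; about a fifth of its hits are not listed in these tables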;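 note: calls also rest on retests at 20 µM and on dose response follow-up; controls were probe without protein and protein plus probe with vehicle; some compounds called inactive have numbers as strong as hits; many hits fall short of the cut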
Target sequence (P11940 whole entry, looked up): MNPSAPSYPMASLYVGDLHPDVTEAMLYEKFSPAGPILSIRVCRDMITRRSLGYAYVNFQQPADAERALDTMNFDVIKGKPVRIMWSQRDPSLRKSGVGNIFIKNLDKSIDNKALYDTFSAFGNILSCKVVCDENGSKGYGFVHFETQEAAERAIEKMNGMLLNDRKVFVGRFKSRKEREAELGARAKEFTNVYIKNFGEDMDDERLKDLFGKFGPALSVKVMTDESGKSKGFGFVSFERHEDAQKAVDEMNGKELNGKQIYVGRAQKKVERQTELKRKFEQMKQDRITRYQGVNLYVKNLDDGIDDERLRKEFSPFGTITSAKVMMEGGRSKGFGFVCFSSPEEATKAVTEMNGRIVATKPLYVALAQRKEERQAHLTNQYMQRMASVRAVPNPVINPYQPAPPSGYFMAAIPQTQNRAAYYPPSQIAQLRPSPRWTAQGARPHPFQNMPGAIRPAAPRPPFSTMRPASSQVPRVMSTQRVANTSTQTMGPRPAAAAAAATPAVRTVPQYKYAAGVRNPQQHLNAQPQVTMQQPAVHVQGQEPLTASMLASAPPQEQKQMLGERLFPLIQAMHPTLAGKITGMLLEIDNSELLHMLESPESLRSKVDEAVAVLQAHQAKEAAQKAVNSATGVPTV
CSC inhib: cancer stem cell inhibition. hit rate 1.1% among 300,000. inhibition, % at 7.5 µM. cancer stem cell-like cells viability, luminescence;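 active = mean at 75% or more and at least half the replicates too; inconclusive = mean and replicates disagree; tested in HMLE shEcad cells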;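 note: 0% = median of negative and 100% = median of positive control wells; the first replicate is given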
eIF4H inh: inhibitors of RNA binding by human eIF4H; inhibition, % at 35 µM; eIF4H fluorescence polarization binding assay; hit rate 0.94% among 290,000; AID 2012; Q15056;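 active = 50% or more with normal probe brightness, or confirmed in later tests; inconclusive = above 50% with abnormal brightness, or retests that disagree; inactive = below 50% or failed in later tests; about a fifth of its hits are not listed in these tables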;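 note: calls also rest on retests at 20 µM and on dose response follow-up; 0% = protein and probe with vehicle and 100% = probe without protein; strong numbers were not always called active; many hits fall short of the cut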
MT1-MMP act inh: blocks activation of human MT1-MMP | GFP/RFP ratio change, % at 20 µM | hit rate 0.061% among 360,000 | HT1080 RFP-PRO-GFP cells, GFP/RFP ratio fluorescence, overnight; percent of plate control window, DMSO zero | P50281;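 active = GFP/RFP ratio change of at least 30% with cell ATP level not reduced by more than half and red fluorescence within 50% of control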; note: strong numbers were not always called active
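Assay system: HT1080 RFP-PRO-GFP cells | Dosing: 20 µM single dose, 1% DMSO | Incubation: Cells overnight before dosing, compound overnight, 37 °C, 5% CO2 | Evaluation: GFP/RFP fluorescence ratio | Control set: DMSO-only wells and HT1080 RFP-L50D-GFP cell wells as references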
eIF4H inh retest: second read-out of eIF4H inh, no call of its own (marks repeat the call); inhibition, %; compound at 20 µM; confirmation average;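 mean of two retest wells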
PABP polyA inh retest: recorded beside PABP polyA inh, whose call it bears; inhibition, %; compound at 20 µM; confirmation repeats;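 mean of two retest wells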
MT1-MMP act inh RFP: second read-out of MT1-MMP act inh, no call of its own (marks repeat the call); RFP signal change, %; measured here: RFP expression control read;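 0 = vehicle wells; hits needed this value within 50% of zero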
Numbers without * were called inactive; i = inactive; ? = inconclusive; . = not tested or not shown; + = active, no number; & = joins results of further samples. The list is partial, so the mix of outcomes need not match the whole.

SMILES	Env fusion inh	Yeast UUG start	Rce1 inhib	PABP polyA inh	CSC inhib	eIF4H inh	MT1-MMP act inh	MT1-MMP act inh RFP	others
CCOc1ccccc1NC(=O)C1C2C=CC(C2)C1C(=O)O (stereo not drawn)	0	-11	i	4	-5	-12	8	2
CCOc1cccc(C2/C(=C(/O)c3ccc4c(c3)CC(C)O4)C(=O)C(=O)N2Cc2cccnc2)c1 (stereo not drawn)	-3	-9	i	16	-1	-11	1	5
CC1CCN(c2nnc(-c3cccs3)c3ccccc23)CC1	-9	.	i	-19	25	-10	-12	-5
COc1ccc(NC(=O)CCc2nc3ccccc3s2)c(OC)c1	19	.	i	-12	0	-2	-3	-3
CN(/C=C/C(=C/C=[N+](C)c1ccccc1)OCCCS(=O)(=O)[O-])c1ccccc1	19	.	i	24	-8	?	-35	3
CCOC(=O)C(C)n1cnc2c(nnn2Cc2ccc(Cl)cc2)c1=O (stereo not drawn)	13	3	i	11	.	-7	0	0
CCOC(=O)c1cccc(NC(=O)C2CCN(c3ncnc4c3nc3n4CCCCC3)CC2)c1	-2	2	i	9	-10	1	6	-12
CC(/C=N/Nc1ncc(C)c(=O)[nH]1)=C\c1ccccc1	-1	.	i	-1	1	-4	-2	-3
O=C(NNS(=O)(=O)c1ccccc1)C1CCN(S(=O)(=O)c2ccccc2)CC1	-37	-8	i	1	-4	4	4	1
Cc1ccc(C)c(NCC(=O)c2ccc(Cl)cc2)c1	2	-6	i	-11	-8	-1	1	3
CCc1noc(C)c1C(=O)N1CCSC1=Nc1cccc(Cl)c1C	.	-17	i	12	5	8	-3	-5
OCCN=C(c1ccccc1)C12CN3CN(CN(C3)C1)C2	.	-8	i	10	1	-9	0	3
COCCNC(=O)C(=O)N/N=C(\C)CC(=O)Nc1cccc(C(F)(F)F)c1	-4	.	i	1	-3	-2	-5	-2
CCCCOc1ccc(C(=O)NCC(=O)NCCOc2ccccc2)cc1	.	-14	i	.	-4	.	2	2
COc1ccccc1-n1c(C)nc2cc(C(=O)O)ccc21	.	-23	i	3	-10	-7	3	3
CCN1CCC[C@H]1CNCCCn1cnc2c(SC)ncnc21	5	-4	.	.	.	.	2	6
COc1ccc(NC(=O)c2cccc(C(=O)Nc3ccc(OC)cc3)n2)cc1	9	.	.	8	-2	0	.	.
COc1ccc(NC(C)=O)cc1NC(C)C(=O)Nc1cc(C(F)(F)F)ccc1N1CCOCC1 (stereo not drawn)	.	17	i	0	-8	1	-2	-3
OCCN1CCN(Cc2ccc3ccccc3c2)CC1	12	-7	.	5	3	11	-3	-4
Nc1nc(N)nc(-c2cccc(Cl)c2Cl)n1	2	-15	.	.	-9	.	2	0
COc1ccc(C(=O)N=c2sc3ccccc3n2C)cc1OC	-46	0	i	0	.	-2	3	4
CCNc1ccc(C(=O)OCC)cc1NC(=O)c1cc(S(=O)(=O)N2CCOCC2)ccc1C	62*	-7	i	-5	7	-3	1	1
COCCCN(C(=O)c1cc(Cl)nc2ccccc12)c1c(N)n(Cc2ccccc2)c(=O)[nH]c1=O	1	-4	.	.	.	.	-3	-1
O=C(c1ccco1)N1CCN(c2nc(C3CC3)nc3c2nnn3Cc2ccccc2Cl)CC1	.	-11	i	10	16	-2	-21	-26
O=C(COC(=O)Cc1ccc(F)cc1)NC(=O)c1ccccc1	.	6	i	.	-5	.	-3	-2
Nc1nonc1-n1nnc(C(=O)N/N=C/c2cccc(Cl)c2)c1CSc1ccc(Cl)cc1	-2	-23	+	2	2	10	7	1
COc1nc(N2CCOCC2)nc(C)c1[N+](=O)[O-]	0	.	i	0	-11	-7	3	3
Cc1noc(C)c1S(=O)(=O)N1CCC(C(=O)c2ccccc2)CC1	9	.	i	9	2	0	-1	-2
CCN(C[C@H]1N[C@@](Cc2ccccc2)(C(=O)OC)[C@H]2C(=O)N(C)C(=O)[C@@H]12)S(=O)(=O)c1ccc(OC(F)(F)F)cc1	-40	-4	.	.	.	.	2	-1
COc1ccc(NC(=O)CN(C)S(=O)(=O)c2cnc[nH]2)cc1OC	2	-7	i	-3	-3	2	4	5
O=C(COc1ccc2ccccc2c1)Nc1ccc(Br)cc1C(=O)O	-9	-20	i	17	-4	6	-2	4
CCC(C)[C@H]1CN=C(N)N1CCCc1cc(OC)c(OC)c(OC)c1 (stereo partly drawn)	4	-4	i	2	-6	-18	7	7
COc1ccc(NC2CC(=O)N(c3cc([N+](=O)[O-])ccc3C)C2=O)cc1 (stereo not drawn)	2	.	i	6	13	1	3	-1
COc1ccc(C(=O)N[C@H](C(=O)NCCCSc2ccccc2)C(C)C)cc1	-44	1	.	.	-10	.	-11	-7
C/C(N)=C(/C#N)C(=O)CSc1nnc(-c2ccc(OC(F)F)cc2)o1	-90	-6&-15	i	16	-1	19	1&-3	0&0
COc1ccc(NC(=O)CCS(=O)(=O)c2ccc3c(c2)NC(=O)C(C)S3)cc1OC (stereo not drawn)	-26	1	i	16	1	2	4	4
CC(=O)NC(CC(=O)NNC(=O)c1cc2ccccc2cc1O)c1ccccc1 (stereo not drawn)	16	-13	i	5	16	18	2	5
O=C(CCn1c(=O)c2cccn2c2ccc(F)cc21)NCc1cccc(F)c1	-1	-8	i	7	-3	-14	-5	-5
CN(C(=O)c1ccccc1)C1c2c(ccc3ccccc23)OCC1CO (stereo not drawn)	10	2	i	2	-3	-9	2	2
N#C/C(=C\c1ccc(O)c(O)c1)C(=O)NCc1ccccc1	6	-14	.	.	.	.	1	-3
Cc1ccc2cc(CCNC(=O)CCCc3ccccc3)c(=O)[nH]c2c1	9	15	i	15	-10	-20	-9	0
Cc1cc(NS(=O)(=O)c2ccc(NC(=O)C(C(C)C)N3C(=O)c4ccccc4C3=O)cc2)nc(C)n1 (stereo not drawn)	-21	-19	i	8	2	-4	1	5
O=C(NC(=S)N1CCc2ccccc21)C1CCC1	-8	-7	i	-3	-9	-1	2	7
O=C(Nc1nccs1)c1cccc(NC(=O)C2CC2)c1	24	-17	i	-4	-5	-2	3	3
O=[N+]([O-])c1cc(S(=O)(=O)N2CCCC2)ccc1NN=C1CCCC1	39	-37	i	0	18	7	0	-2
CCN(C(=O)c1cn(CC)c(=O)c2cc(OC)c(OC)cc12)c1ccccc1C	-4	16	i	0	-10	-7	-5	-1
CCN(CCCNC(=O)CN(C)S(=O)(=O)c1cccc2nsnc12)c1cccc(C)c1	15	-1	i	1	-5	-1	3	-4
Cc1cccc(C)c1OCCOC(=O)c1n[nH]c2ccccc12	8	-13	i	-1	-3	-1	0	-1
CC1CCC(=O)N(CCC#N)CC1 (stereo not drawn)	-35	-7	i	1	-5	7	2	5
CC1(C)CC(NCc2ccncc2)CC(C)(C)N1	1	-16	i	1	5	-8	-3	5
Cc1ccccc1C(=O)Nc1ccnn1C1CCN(C(=O)c2cnsn2)CC1	-8	-25	i	1	-10	-10	4	5
Cc1ccc(NCN2C(=O)C3C4CCC(C4)C3C2=O)cc1 (stereo not drawn)	.	.	i	12	-10	16	.	.
CC(C)(C)OC(=O)NCCCC[C@H](NC(=O)[C@H](Cc1c[nH]c2ccccc12)NC(=O)OCc1ccccc1)C(=O)O	12	2	i	-1	5	1	-5	-3
CC(C(Sc1ccccc1N)c1ccccc1)[N+](=O)[O-] (stereo not drawn)	-25	.	i	-1	94*	-1	-6	-4
COC(=O)C1=C(C)N(C)C(C)=C(C(=O)OC)C1c1ccsc1	.	0	i	2	-1	3	3	4
CCn1c(SCC(=O)Nc2nc(-c3ccc(C)cc3)cs2)nnc1-c1ccccc1	57	-6	i	2	19	7	-2	-17
O=C(O)CCn1c(=O)oc2cc(S(=O)(=O)N3CCCC3)ccc21	-1	-13	.	.	-2	.	-4	1
CCN(CC)CCCNC(=O)c1cn(CCOC)c(=O)c2c1c1ccccc1n2C	-4	11	i	-7	.	-2	-3	-3
COc1ccc(NC(=O)c2ccc(CN3CCN(c4ccccc4)CC3)cc2)cc1OC	.	9	.	3	-3	0	6	-12
O=C(CCNC(=O)C1CCN(S(=O)(=O)c2ccc(F)cc2)CC1)NCc1ccc(Cl)cc1	11	-10	i	.	-2	.	-1	-2

(continued)
SMILES	Env fusion inh	Yeast UUG start	Rce1 inhib	PABP polyA inh	CSC inhib	eIF4H inh	MT1-MMP act inh	MT1-MMP act inh RFP	others
COc1ccc(OC)c(C2CC(=O)N3CN(c4ccccc4)CSC3=C2C#N)c1 (stereo not drawn)	-15	-2	i	53	0	21	0	2	eIF4H inh retest=19;PABP polyA inh retest=28
Cc1cccnc1NC(=O)c1ccccc1-c1ccccc1C(=O)Nc1ncccc1C	-28	-16	i	11	.	0	0	4
COc1ccccc1CN1CC(C(=O)N2CCCCO2)CCC1=O (stereo not drawn)	-40	4	i	-11	-7	-13	1	0
CCCCOc1ccc(C(=O)NCc2ccccn2)cc1	.	.	i	0	-1	-4	-1	-3
COCCn1cnc2c1c(=O)n(CC(=O)O)c(=O)n2Cc1ccccc1	-11	-6	i	-6	-9	-1	2	4
Cn1c(-c2ccc(Br)cc2)cnc1NCc1ccc(C#N)cc1	-3	-13	i	5	8	4	2	4
C=CC[C@@H](CC(=O)N[C@@H](CO)Cc1ccccc1)C(=O)N[C@H](C)COC(=O)[C@@H](CC=C)Cc1ccc(F)cc1	-45	-9	.	.	.	.	-4	-2
CC(=O)OC1CC2(C)C(=O)CCC2C2CCc3cc(O)ccc3C12 (stereo not drawn)	.	-12	i	-4	0	-3	5	4
CC1CC(C)CN(C(C(=O)NC2CCCCC2)c2ccnc3ccccc23)C1 (stereo not drawn)	9	-13	.	.	.	.	-4	-5
Cc1cc(C)c(C#N)c(SCCS(=O)(=O)c2ccc(Cl)cc2)n1	12	-16	i	-1	34	-4	-6	-8
CCN(CC)C(=O)C1=C(C)N(Cc2ccc(C(C)(C)C)cc2)C(=O)C(CC(=O)NCc2ccco2)C1 (stereo not drawn)	15	14	.	.	.	.	6	4
C(=N\Nc1nc2ccccc2[nH]1)/c1ccc2ncccc2c1	-99	-16	i	-14	79*	0	-6	-10
O=C(NCCc1ccccc1)C1CCN(c2nc3ccccc3o2)CC1	.	.	i	-8	-5	-2	4	-1
O=S(=O)(c1ccc(Cl)c(C(F)(F)F)c1)N1CCN(c2ccccn2)CC1	3	.	i	2	-14	-10	1	-3
Cc1cc(-c2nc(-c3ccc(C(C)(C)C)cc3)no2)no1	-75	-17	i	10	-7	4	2	-14
CCC(Sc1nc(C)cc(=O)[nH]1)C(=O)Nc1ccc(Cl)cn1 (stereo not drawn)	21	-9	i	-11	-5	1	1	2
O=C(CN1C(=O)C2C3C=CC(C3)C2C1=O)OCC(=O)c1ccc([N+](=O)[O-])cc1 (stereo not drawn)	-7	-14	i	7	.	-6	.	.
COc1ccc(CCN2CN(S(=O)(=O)c3ccc(C)cc3)c3nc4ccccc4nc32)cc1OC	-15	.	i	10	3	3	-16	-13
Cc1nc(CCNC(=O)c2cc(COc3ccc(F)cc3Cl)on2)sc1C	11	-10	i	-12	5	4	-7	-3
C[C@@]12C(=O)N(c3cccc(F)c3)C(=O)N1[C@H](c1ccc(F)cc1)[C@@H]1C(=O)N(C3CCCCC3)C(=O)[C@@H]12	.	11	i	-1	9	-4	-1	1
